# Ecoli rRNA inh – selective bacterial rRNA inhibition in E. coli; E. coli WT GFP vs humanized-ribosome RFP mutants, fluorescence, 24 h; hits give low values; DMSO median 0, no signal -100; GFP signal change (wild-type ribosome), % (test concentration not listed); 1.6% of 350,000 active; AID 720706;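 active = significant combined selectivity score with lowered wild-type GFP, culture density cut under 30%, mutant RFP and density less affected; inactive = any of these conditions unmet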; also: one replicate is shown; some compounds called inactive have numbers as strong as hits
# E coli growth – blocks Escherichia coli growth. OD600, 23 h; hits give low values. AID 1053175. OD600 absorbance (test concentration not listed). 0.21% of 330,000 active;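 active = OD600 absorbance below the run mean of sample wells minus 3.6 SD, in any replicate, cut at about 0.56 in these data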;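 also: stock transfer was 300 nL into about 60 µL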
# ALR H2O2 inh – human ALR oxidase inhibition via reduced H2O2; P55789; purified ALR, DTT oxidation, H2O2 HRP-luminol luminescence; inhibition, % (concentration not given with the values); AID 485317; 3.8% of 290,000 active;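 active = mean and each replicate at 75% or more; inconclusive = only one of the two met; inactive = neither met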;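 also: stock transfer was 7.5 nL into about 7.5 µL; 0% = neutral wells and 100% = wells with inactivated enzyme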
# Target sequence (P55789 whole entry, looked up): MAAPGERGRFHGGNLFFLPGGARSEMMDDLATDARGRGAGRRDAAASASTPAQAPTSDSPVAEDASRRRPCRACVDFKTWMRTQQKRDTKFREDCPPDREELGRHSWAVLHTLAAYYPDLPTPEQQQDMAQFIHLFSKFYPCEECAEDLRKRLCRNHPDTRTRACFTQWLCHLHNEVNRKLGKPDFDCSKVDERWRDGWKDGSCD
# Vif TR-FRET – HIV-1 Vif–A3G interaction blockers – biochemical, TR-FRET, GST-Vif 1-94, biotin-A3G peptide, dose response retest, primary screen (AID 1117319); 0.57% of 260,000 active; one-dose inhibition, %; IC50 in µM for titrated hits; TR-FRET GST-Vif / biotin-A3G peptide binding; higher % means a stronger effect; test concentration not given here; strong numbers were not always called active;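 active = above the screen mean plus three standard deviations and confirmed in dose response; inconclusive = results disagree or hit not tested in dose response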;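 also: Vif residues 1-94 fused to GST binding biotinylated APOBEC3G peptide 110-148; 0% = full assay without inhibitor and 100% = GST in place of GST-Vif; retest series ran down from 100 µM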
# MLL AF4-AF9 inh – MLL-AF4/AF9 protein interaction inhibition; AlphaScreen, biotin-AF4 peptide binding to FLAG-AF9; inhibition, % at 10 µM; 0.47% of 350,000 active;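 active = every replicate reaching a set inhibition limit, whatever the replicate mean, cut at about 25% in these data; inconclusive = mean inhibition reaches that limit but some replicates miss it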;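 also: 0% = plate neutral control median and 100% = total signal loss; the record names both 10 and 1 µM as test concentration; the first replicate is given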
# Target sequence (P42568 whole entry, looked up): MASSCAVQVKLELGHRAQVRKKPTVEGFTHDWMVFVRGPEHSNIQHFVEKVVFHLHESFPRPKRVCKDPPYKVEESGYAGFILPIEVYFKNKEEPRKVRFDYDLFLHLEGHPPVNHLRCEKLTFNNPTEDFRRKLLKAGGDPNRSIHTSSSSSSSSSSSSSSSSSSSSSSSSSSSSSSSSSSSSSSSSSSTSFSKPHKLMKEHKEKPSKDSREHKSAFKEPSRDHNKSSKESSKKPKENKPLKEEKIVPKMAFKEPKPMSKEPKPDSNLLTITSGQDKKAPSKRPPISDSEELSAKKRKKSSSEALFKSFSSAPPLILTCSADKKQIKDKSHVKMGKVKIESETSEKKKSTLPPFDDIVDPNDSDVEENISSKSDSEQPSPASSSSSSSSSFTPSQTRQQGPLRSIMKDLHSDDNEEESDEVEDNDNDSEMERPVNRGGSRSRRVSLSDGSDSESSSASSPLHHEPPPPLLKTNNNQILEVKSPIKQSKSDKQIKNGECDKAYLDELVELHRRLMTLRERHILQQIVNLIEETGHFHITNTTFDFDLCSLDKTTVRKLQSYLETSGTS
# FGF22 binding – FGF22 (human) thermal shift binding. Q9HCT0. recombinant FGF22 thermal shift, SYPRO orange fluorescence; percent of sucrose octasulfate shift, DMSO zero. calls only at 9.99 µM. 1.5% of 340,000 active. AID 651658;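 active = melting point raised past a set limit in the mean and every replicate; inconclusive = no clear call; three in four hits are not shown here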
# Target sequence (Q9HCT0 whole entry, looked up): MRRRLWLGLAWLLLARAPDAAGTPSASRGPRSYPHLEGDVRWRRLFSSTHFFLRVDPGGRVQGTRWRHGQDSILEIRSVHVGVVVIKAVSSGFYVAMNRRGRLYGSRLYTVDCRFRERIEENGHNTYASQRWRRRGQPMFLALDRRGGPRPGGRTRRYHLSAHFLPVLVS
# HNF4A DNA FP – change in binding of human HNF4 alpha to DNA; P41235; HNF4a-FITC DNA binding, fluorescence polarization, 1 h; activity change, % at 10 µM; 0.3% of 360,000 active; AID 1224865; in the data active = activity change above about 30%, passing the limit was not always enough;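 also: controls were the assay level and a saturating level of protein; the project sought stronger binding though the title names inhibitors; some compounds called inactive have numbers as strong as hits; positive values seem to mean higher polarization but the record does not say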
# Ecoli rRNA inh OD600 – also measured in Ecoli rRNA inh; calls as there; OD600 change, %; measured here: OD600 growth;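 optical density of the mix in the first replicate; 0 = DMSO median and -100 = no signal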
# Ecoli rRNA inh RFP – recorded beside Ecoli rRNA inh, whose call it bears; RFP signal change, %; measured here: RFP humanized mutant strains;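 first replicate; 0 = DMSO median and -100 = no signal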
# An asterisk follows results filed as active; i = inactive; ? = inconclusive; nt = not tested or not shown; & = joins results of further samples. These rows are one share of the data; rates above refer to the full screens.
ALR H2O2 inh,Ecoli rRNA inh,MLL AF4-AF9 inh,FGF22 binding,Vif TR-FRET,E coli growth,Ecoli rRNA inh RFP,Ecoli rRNA inh OD600,HNF4A DNA FP,SMILES
-6,nt,nt,nt,-1%,0.71,nt,nt,-4.9,O=C1C2C3C=CC(C3)C2C(=O)N1c1nccs1 (stereo not drawn)
28,nt,nt,nt,>100µM*,0.76,nt,nt,1.0,Cc1ccc2c(c1)N=C(c1ccc(Cl)cc1)CO2
nt,-9,nt,i,nt,nt,6.6,1,2.1,Cc1n[nH]c(C)c1CCC(=O)N/N=C/c1c[nH]c2ccccc12
nt,11,1.1,i,7%,0.68,-2.8,8,2.1,CCOc1ccc(CCNC(=O)c2c(C)noc2C)cc1OCC
-19,-20,6.8,i,-7%,0.64,25,-13,1.4,COc1ccc(-n2nc([N+](=O)[O-])c(=NC3CCN(Cc4ccccc4)CC3)n2O)cc1
-8,-2,-11,i,85%,0.72,-0.3,7,-2.6,COc1ccc(S(N)(=O)=O)cc1C(=O)OCC(=O)NC(C)(C#N)C1CC1 (stereo not drawn)
0,5,nt,nt,7%,0.77,-2.5,11,-1.8,O=C(COC(=O)c1ccccc1)NCC1CCCO1 (stereo not drawn)
-11,-26,-1.1,i,-5%,0.7,-4.1,-30,0.0,Cc1ccc(N/C(=N/S(=O)(=O)c2cccs2)c2ccccc2)c(C)c1
-30,0,nt,nt,1%,0.69,-1.8,6,2.0,Cc1ccccc1NC(=O)Cn1c(C)nc2ccc(N)cc2c1=O
25,-4,-0.9,i,nt,0.69,1.5,-1,-1.0,O=C(CSc1ncnc2ccccc12)NCc1ccc2c(c1)OCO2
nt,15,-1.6,i,-9%,nt,2.5,15,3.0,N#Cc1cccc(N2[C@@H](Cc3cc4ccccc4n3Cc3ccccc3)COC[C@H]2Cc2ccc3ccccc3c2)c1
-1,12,-2.0,i,0%,nt,0.1,14,2.0,Cc1ccc(N=C2SC(C(=O)NCCc3ccccc3)CC(=O)N2C)cc1C (stereo not drawn)
57,-11,-3.4,i,nt,0.66,-0.9,-17,-0.3,COc1c(/C=C2\SC(=Nc3ccccc3Cl)NC2=O)cccc1[N+](=O)[O-]
6,1,8.5,i,2%,nt,-0.8,1,-0.9,CCOc1ccc(/C=C/C2=CC(C)(C)NC(=S)N2)cc1
nt,-1,1.8,i,nt,nt,0.0,-4,nt,Cc1noc(C)c1S(=O)(=O)N(C)C[C@@H]1OCCCC[C@@H](C)Oc2ccc(NC(=O)Cc3ccccc3)cc2C(=O)N([C@@H](C)CO)C[C@@H]1C
nt,-3,4.4,i,nt,0.68,-1.0,-4,-0.9,O=C(CN1CCCCC1)c1c[nH]c2ccccc12
4,7,-3.1,i,-9%,0.7,-8.8,9,3.6,C=CCOc1c2ccc(C(=O)NCc3ccc(C)cc3)cc2nn1C
nt,6,-5.6,i,nt,nt,-3.9,11,nt,COC(=O)C[C@H]1C=C[C@@H](NC(=O)c2ccccc2)[C@@H](CO)O1
-10,3,1.6,i,nt,0.71,1.1,3,1.3,CCCNC(=O)NC(=O)CN1CCCC1c1ccc2c(c1)OCCO2 (stereo not drawn)
-12,nt,nt,nt,2%,0.71,nt,nt,4.0,CC(=O)OC1COC(N2CCc3cc(Br)c([N+](=O)[O-])cc32)C(OC(C)=O)C1OC(C)=O (stereo not drawn)
-3,3,7.7,i,nt,0.69,1.4,8,0.1,O=C(CSc1cccc[n+]1[O-])Nc1cc(S(=O)(=O)N2CCOCC2)ccc1N1CCOCC1
nt,4,-0.1,i,3%,0.7,0.9,8,-3.5,CCN(CC)S(=O)(=O)c1ccc2c(c1)nc(SCC(=O)NCC1CCCO1)n2CC (stereo not drawn)
nt,4,-15,i,nt,nt,1.4,-1,nt,CO[C@@H]1CN(C)C(=O)c2cc(NC(C)=O)ccc2OC[C@H](C)N(CCC(F)(F)F)C[C@@H]1C
-23,9,1.3,i,6%,0.73,1.3,11,1.6,O=C(NC1CCSc2ccccc21)c1ccc([N+](=O)[O-])cc1 (stereo not drawn)
nt,5,-2.3,i,nt,nt,-0.2,15,3.0,CC1(C(=O)NS(=O)(=O)Cc2ccccc2)CCN1C(=O)CCc1ccccc1 (stereo not drawn)
-3,nt,nt,nt,-2%,0.71,nt,nt,-0.4,CCOC(=O)c1[nH]c2ccc(OCC)cc2c1NC(=O)CN1CCC2(CC1)OCCO2
2,-26,1.8,i,-3%,0.72,8.3,-60,0.3,Cc1ccc(C)c(S(=O)(=O)N2CCN(C(=O)CCNC(=O)c3ccc(Br)cc3)CC2)c1
-3,-13,11,i,6%,0.68,4.7,-8,1.8,CCOC(=O)c1c(C)[nH]c(C)c1C(=O)COC(=O)/C=C/c1ccc(Cl)cc1
-3,8,-2.8,i,nt,0.71,1.4,13,nt,COC(=O)Cc1c(C)c2ccc(OCC(=O)c3ccc(OC)c(OC)c3)cc2oc1=O
51,-14,1.5,i,6%,0.7,-5.4,-8,0.3,CCN(CC)c1ccc(Nc2nc(-c3cccnc3)cs2)cc1
nt,1,-4.6,i,nt,nt,-2.8,9,nt,C[C@@H]1CN([C@@H](C)CO)C(=O)c2cccc(NC(=O)c3cnccn3)c2O[C@@H]1CN(C)S(C)(=O)=O
100*,-18*,3.8,i,26%,0.65,0.7*,-3.6*,-0.9,CC(=O)N1CCC(=NNc2nc3ccccc3[nH]2)CC1
97*,nt,nt,nt,11%,0.63,nt,nt,2.2,COC(=O)c1ccc(NC(=O)CSC2=Nc3ccccc3C3CC=NN23)cc1 (stereo not drawn)
99*,-12,1.8,i,1%,0.66,4.2,-14,-1.9,O=C(CSCc1ccc([N+](=O)[O-])cc1)NC1CCCCCC1
-32,15,0.4,i,2%,0.66,0.8,5,2.7,CN(C)C(=O)CN1CCN(Cc2cn(C)nc2-c2ccc3c(c2)OCCO3)CC1
nt,1,-7.3,i,1.5µM*,0.72,-0.9,2,-58,COC(=O)c1ccccc1NC(=O)CCS(=O)(=O)c1ccc(Br)cc1
nt,3&7,-4.3&0.3&-0.4,i,5%,nt,0.9&-1.5,-1&13,2.2,COc1ccccc1-c1cnc2c(c1)C(=O)N([C@@H](C)CO)C[C@@H](C)[C@H](CN(C)C(=O)c1cccnc1)O2
0,nt,nt,nt,?,nt,nt,nt,-6.4,O=c1cc(C(F)(F)F)[nH]c2c(C(F)(F)F)cccc12
nt,3,-2.8,i,-7%,0.73,-0.9,6,-0.7,O=C(NCCCc1ccccc1)C(=O)NCC1OCCN1S(=O)(=O)c1ccccc1 (stereo not drawn)
-11,nt,nt,nt,5%,0.72,nt,nt,0.7,CC(C)C(=O)N1CCN(c2nc(-c3ccccc3)c3c(c2C#N)CC(C)(C)OC3)CC1
-12,nt,nt,nt,1%,0.7,nt,nt,-1.3,COCC(=O)N1CCC(n2nnc3cc(C(F)(F)F)ccc32)CC1
-6,15,3.7,i,7%,0.67,2.9,12,3.2,COc1cccc(NC(=S)NC2CC3CCCC(C2)N3CC(C)C)c1 (stereo not drawn)
-1,nt,nt,nt,-5%,0.75,nt,nt,-2.6,Cn1cc(CNC(=O)COc2ccc(Cl)cc2Cl)cn1
nt,9,-6.0,i,nt,nt,-2.3,12,nt,C[C@H](CO)N1C[C@H](C)[C@@H](CN(C)C(=O)Cc2cccnc2)Oc2ncc(C#CCN(C)C)cc2C1=O
-4,17,-51,i,-2%,0.65,-2.6,-2,3.4,CCc1c(C)nc(Nc2nc(C)c3ccc(OC)cc3n2)[nH]c1=O
26,7,-1.7,nt,-3%,0.65,-0.2,6,-0.7,Cc1c(N=c2scc(-c3ccccc3)n2CCO)c(=O)n(-c2ccccc2)n1C
-14,-23,23,i,nt,0.49*,14,-15,1.9,Cc1ccccc1Nc1nc(NCc2ccco2)c2ccccc2n1
-19,11,0.7,i,5%,0.7,12,12,-1.8,CCCCC1=CC2=CC(=O)C(C)(OC(=O)CC)C(=O)C2=CN1C(CO)CO (stereo not drawn)
97*,-32,1.1,i,-5%,0.64,10,-56,42*,COc1cc([N+](=O)[O-])cc(/C=C2/SC(=S)N(Cc3ccccc3)C2=O)c1O
-8,nt,nt,nt,9%,0.68,nt,nt,3.0,C/C=C/c1ccc(OCCCNC)c(OC)c1

# Next results:
ALR H2O2 inh,Ecoli rRNA inh,MLL AF4-AF9 inh,FGF22 binding,Vif TR-FRET,E coli growth,Ecoli rRNA inh RFP,Ecoli rRNA inh OD600,HNF4A DNA FP,SMILES
-5,12,-2.3,i,nt,nt,-0.8,6,0.1,COC(=O)C1=CO[C@@H](O[C@@H]2O[C@H](CO)[C@@H](O)[C@H](O)[C@H]2O)C2C(CO)=CCC12 (stereo partly drawn)
2,1,-2.0,i,nt,0.66,0.2,5,-1.7,CCOc1cccc2c1OC1(C)CC2NC(=O)N1c1cccc(C(=O)N2CCN(c3ccccn3)CC2)c1 (stereo not drawn)
-13,nt,nt,nt,-11%,0.75,nt,nt,-0.4,C=CCn1c(SCC(=O)/C(C#N)=C(\C)N)nc2sc(C)c(C)c2c1=O
12,nt,nt,nt,0%,nt,nt,nt,1.9,COc1cc(/C=N/NC(=O)c2cccnc2)ccc1OC(=O)c1cccc(Br)c1
nt,nt,nt,nt,-1%,0.74,nt,nt,-1.4,CCC1CCC(C(=O)NC(C(=O)Nc2ccc3c(c2)OCCO3)C(C)C)CC1 (stereo not drawn)
3,-1,-1.4,i,1%,0.68,-3.5,-6,0.8,CC1=C(C(=O)Nc2ccccn2)C(c2ccc(Cl)cc2)NC(=S)N1 (stereo not drawn)
-1,18,-1.8,i,-1%,0.67,0.8,7,-1.9,Cc1ccc(S(=O)(=O)N2CCC(C(=O)NNC(=O)c3cccnc3)CC2)cc1
nt,0,-5.5,i,nt,nt,-3.3,0,nt,C[C@H](CO)N1C[C@H](C)[C@@H](CN(C)C(=O)c2cccc(F)c2)Oc2ncc(C#CCN(C)C)cc2C1=O
2,9,-2.1,i,nt,nt,2.2,4,-1.4,Cc1noc(C)c1NC(=O)Nc1cccc2c1O[C@H](CN(C)S(=O)(=O)c1c(C)noc1C)[C@@H](C)CN([C@H](C)CO)C2=O
nt,6,0.7,i,nt,nt,1.0,2,nt,COc1ccc(NC(=O)N(C)C[C@@H]2Oc3c(NC(=O)CCCCCC(=O)Nc4ccccc4N)cccc3C(=O)N([C@@H](C)CO)C[C@@H]2C)cc1
nt,-24,1.6,i,nt,nt,1.8,-52,nt,Cc1ccc(S(=O)(=O)N2C[C@@H](O)COC[C@H]3O[C@@H](CC(=O)NCc4ccc(Cl)c(Cl)c4)CC[C@@H]32)cc1
0,-6,2.1,i,nt,0.66,2.2,-8,0.6,C=CCN(C(=O)CCC(=O)Nc1cc(C)on1)C(C(=O)NC(C)(C)CC)c1cccc(OC)c1OC (stereo not drawn)

# 4 of the entries above in order of the Vif TR-FRET value, rising:
SMILES	Vif TR-FRET
C=CCn1c(SCC(=O)/C(C#N)=C(\C)N)nc2sc(C)c(C)c2c1=O	-11%
CCC1CCC(C(=O)NC(C(=O)Nc2ccc3c(c2)OCCO3)C(C)C)CC1 (stereo not drawn)	-1%
COc1cc(/C=N/NC(=O)c2cccnc2)ccc1OC(=O)c1cccc(Br)c1	0%
CC1=C(C(=O)Nc2ccccn2)C(c2ccc(Cl)cc2)NC(=S)N1 (stereo not drawn)	1%
